BJeLR viability: lowers viability of BJeLR cells; viability loss activity score, % (test concentration not listed); AID 2275; BJeLR fibroblasts viability, CellTiterGlo ATP luminescence, 48 h; HRASV12, hTERT and SV40 LT/ST transformed; 30,000 tested, 0.64% active; in the data active = viability loss activity score above about 50%; about a fifth of its hits are not listed in these tables;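 also: higher score means fewer live cells and less ATP luminescence; stock transfer was 50 or 100 nL into about 30 µL; 0% = vehicle wells and 100% = a reference killing control; one replicate is shown; the record names a cut of 85%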
A1 inh: blocks A1 activity | MEF A1-2A-BIM cells, caspase-Glo luminescence, 3 h; percent of clofoctol signal, DMSO as zero | caspase activation, % (concentration not given with the values) | 21,000 tested, 0.51% active;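 active = most replicate scores above 10, or exactly half above 10 with mean activity above 10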;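 also: effector caspase 3 and 7 activity cleaving a DEVD luciferin substrate; 50 nL library stock added to about 30 µL; numbers are from one replicate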
* hit, by the source's call; / = not tested or not shown. This is a subset, so the mix of outcomes need not match the whole.

SMILES | BJeLR viability | A1 inh
Cc1noc(C)c1S(=O)(=O)Nc1ccc2c(c1)C(=O)N([C@@H](C)CO)C[C@@H](C)[C@H](CN(C)C(=O)NC(C)C)O2 | 1.7 | 0.9
O=C(CSc1nc2c([nH]c3ccccc32)c(=O)n1-c1cccc(Cl)c1)N1CCCCCC1 | 5.9 | /
Cc1ccc(S(=O)(=O)Nc2ccc3c(c2)C(=O)N([C@H](C)CO)C[C@@H](C)[C@H](CN(C)C(=O)Nc2ccc4c(c2)OCO4)O3)cc1 | 3.7 | 0.1
C[C@@H]1CN([C@@H](C)CO)C(=O)c2cc(NC(=O)CCCCCC(=O)Nc3ccccc3N)ccc2O[C@H]1CN(C)S(=O)(=O)c1ccccc1 | -1.5 | /
C[C@H]1CN([C@@H](C)CO)C(=O)c2cccc(NS(=O)(=O)c3ccc(F)cc3)c2O[C@H]1CN(C)S(=O)(=O)c1cn(C)cn1 | 1.4 | /
C[C@H]1CN([C@@H](C)CO)C(=O)c2cccc(NS(=O)(=O)c3cccs3)c2O[C@H]1CN(C)C(=O)Nc1ccc(F)cc1 | -5.4 | /
CCCNC(=O)c1ccc(CS(=O)c2ccc(Br)cc2)o1 (stereo unspecified) | 3.9 | 0.0
C[C@H]1CN([C@@H](C)CO)C(=O)c2cc(NC(=O)Nc3ccccc3)ccc2O[C@H]1CN(C)Cc1ccccc1 | 5.1 | 1.0
CCCNC(=O)N(C)c1nncnc1C(=O)NC | -0.6 | 0.6
C[C@@H]1CN([C@@H](C)CO)C(=O)c2cc(NS(=O)(=O)c3ccccc3)ccc2O[C@H]1CN(C)Cc1ccc(C(F)(F)F)cc1 | 8.7 | 0.1
COc1ccc(NC(=O)N(C)C[C@H]2Oc3c(NC(=O)Nc4c(C)noc4C)cccc3C(=O)N([C@H](C)CO)C[C@@H]2C)cc1 | 0.3 | /
C[C@H]1CN([C@@H](C)CO)C(=O)c2cccc(NS(=O)(=O)c3ccc(Cl)cc3)c2O[C@@H]1CN(C)C(=O)NC1CCCCC1 | 3.2 | /
OC(CCCN1CCCCC1)(c1ccccc1)c1ccccc1 | -3.8 | -0.3
Oc1ccccc1C1=Nc2ccccc2N=C(c2ccc(Cl)cc2)C1 | 3.5 | -0.2
C[C@@H]1CN([C@H](C)CO)C(=O)c2cc(NC(=O)NC3CCCCC3)ccc2O[C@H]1CN(C)Cc1ccc(Oc2ccccc2)cc1 | 2.6 | 0.3
Cc1ccc(S(=O)(=O)Nc2cccc3c2O[C@@H](CN(C)Cc2ccc(-c4ccccc4)cc2)[C@H](C)CN([C@@H](C)CO)C3=O)cc1 | -3.8 | /
CNC[C@@H]1Oc2ccc(NC(=O)Nc3ccc(C(F)(F)F)cc3)cc2C(=O)N([C@H](C)CO)C[C@H]1C | 3.7 | -0.4
O=C(COc1ccc(Cl)cc1)N1CCCC1 | -2.8 | -0.3
COc1ccc(S(=O)(=O)Nc2cccc3c2O[C@@H](CN(C)S(=O)(=O)c2ccc(Cl)cc2)[C@@H](C)CN([C@H](C)CO)C3=O)cc1 | -7.2 | /
Cc1noc(C)c1NC(=O)N(C)C[C@H]1Oc2ccc(NC(=O)Cn3cnnn3)cc2C(=O)N([C@H](C)CO)C[C@H]1C | -2.3 | 0.2
N#Cc1ccc(-c2csc(-c3ccc(C(F)(F)F)cc3)n2)cc1 | -2.7 | -0.1
C[C@H](CO)N1C[C@H](C)[C@@H](CN(C)CC2CCCCC2)Oc2c(NC(=O)c3nc4ccccc4s3)cccc2C1=O | -6.4 | /
CCCCCC[C@H](O)[C@@H]1C[C@@H](O)C2=C(O1)[C@@H](O)CCC2=O | -16 | -0.7
C[C@@H]1CN([C@@H](C)CO)C(=O)c2cc(NS(=O)(=O)c3ccc(F)cc3)ccc2O[C@H]1CN(C)S(=O)(=O)c1ccccc1 | -5.6 | 0.3
OC1(/C=C/CN2CCCCC2)CCCCC1 | 3.1 | 1.1
O=C(/C=C/c1ccco1)Nc1ccc(CN2CCOCC2)cc1 | 1.9 | 0.1
O=C(/C=C/c1ccccc1)CC(O)CCc1ccccc1 (stereo unspecified) | -2.0 | -0.3
C[C@H](CO)N1C[C@H](C)[C@@H](CN(C)Cc2ccccc2)Oc2ccc(NC(=O)Cc3cn(C)c4ccccc34)cc2C1=O | -2.8 | -0.7
CNC[C@@H]1Oc2ccc(NC(=O)Nc3ccc(C(F)(F)F)cc3)cc2C(=O)N([C@H](C)CO)C[C@@H]1C | 4.9 | 0.5
COC(=O)c1cc2c(=O)n3ccccc3nc2n(C(C)C)c1=N | 2.8 | 0.0
CC(C)c1cc(NS(=O)(=O)c2ccccc2)c(O)c(C(C)C)c1 | 3.0 | -0.2
C[C@H]1CN([C@@H](C)CO)C(=O)c2cc(NC(=O)CCC(F)(F)F)ccc2O[C@@H]1CN(C)Cc1ccc(C(=O)Nc2ccccc2N)cc1 | -1.5 | /
O=C(O)C1CCC(Cn2c(SCc3ccccc3Cl)nc3ccsc3c2=O)CC1 (stereo unspecified) | 3.1 | 0.6
O=S(=O)(c1ccccc1)n1ccc(-c2ccc(C#Cc3ccccc3)cc2)n1 | 3.9 | -0.6
COc1ccc(S(=O)(=O)Nc2cccc3c2O[C@H](CN(C)S(=O)(=O)c2cccs2)[C@@H](C)CN([C@@H](C)CO)C3=O)cc1 | -0.5 | /
CCc1ccc(NC(=O)c2ccc(NC(=O)C3CCCO3)cc2)cc1 (stereo unspecified) | 0.6 | /
COc1ccc(S(=O)(=O)N(C)C[C@@H]2Oc3c(NC(=O)Nc4ccc(C(F)(F)F)cc4)cccc3C(=O)N([C@@H](C)CO)C[C@@H]2C)cc1 | 0.2 | /
Nc1ccc(-c2nc3cc(Cl)ccc3o2)c(O)c1 | -3.1 | -5.1
CC(C)(C)CC(=O)NCc1ccccn1 | -3.2 | -0.5
CC1CCN(S(=O)(=O)c2ccc3c(c2)OCC(=O)N3)CC1 | 1.7 | 0.3
O=C(Nc1ccc(F)c(F)c1)c1cc(S(=O)(=O)NCc2ccc(F)cc2)ccc1F | 3.4 | 0.8
C[C@H]1CN([C@@H](C)CO)C(=O)c2cc(NS(=O)(=O)c3cccs3)ccc2O[C@@H]1CN(C)C | 2.6 | 1.0
Cc1noc(C)c1S(=O)(=O)Nc1ccc2c(c1)C(=O)N([C@@H](C)CO)C[C@H](C)[C@@H](CN(C)Cc1ccc(-c3ccccc3)cc1)O2 | -0.9 | 1.0
COC(=O)Nc1nc2ccc(Sc3ccccc3)cc2[nH]1 | 35 | 2.1
CC1CCN(CN2C(=S)SC3=NC(=O)CCCN32)CC1 | 0.5 | -0.2

Look-ups from the list:
`CC1CCN(CN2C(=S)SC3=NC(=O)CCCN32)CC1` | BJeLR viability: 0.5
`OC(CCCN1CCCCC1)(c1ccccc1)c1ccccc1` | BJeLR viability: -3.8
`CCCNC(=O)c1ccc(CS(=O)c2ccc(Br)cc2)o1` (stereo unspecified) | BJeLR viability: 3.9

Profiles, quoted from the list:
Listed for CC(C)(C)CC(=O)NCc1ccccn1 = BJeLR viability = -3.2; A1 inh = -0.5
Listed for COc1ccc(S(=O)(=O)N(C)C[C@@H]2Oc3c(NC(=O)Nc4ccc(C(F)(F)F)cc4)cccc3C(=O)N([C@@H](C)CO)C[C@@H]2C)cc1 = BJeLR viability = 0.2; A1 inh = /
Listed for C[C@H]1CN([C@@H](C)CO)C(=O)c2cc(NS(=O)(=O)c3cccs3)ccc2O[C@@H]1CN(C)C = BJeLR viability = 2.6; A1 inh = 1.0

(next part)
SMILES | BJeLR viability | A1 inh
COc1ccc(CCNC(=O)Cc2c(SC)c3ccccc3n2Cc2ccccc2)cc1OC | 3.6 | -0.1
CC(C)NC(=O)N(C)C[C@H]1Oc2c(NC(=O)Nc3ccccc3)cccc2C(=O)N([C@@H](C)CO)C[C@@H]1C | -5.2 | /
Cc1nc2c(C(=O)NCCC(C)C)c[nH]n2c(=O)c1Cl | -3.7 | 0.0
CC(C)(C)C(=O)Nc1c2c(nn1-c1cccc(Cl)c1)CS(=O)C2 (stereo unspecified) | -3.1 | /
CC(C)NC(=O)Nc1cccc2c1O[C@@H](CN(C)Cc1ccccc1)[C@@H](C)CN([C@H](C)CO)C2=O | -0.4 | /
C[C@@H]1CN([C@@H](C)CO)C(=O)c2cccc(NS(=O)(=O)c3ccc(Cl)cc3)c2O[C@H]1CN(C)C(=O)Nc1ccc(C(F)(F)F)cc1 | 3.3 | /
CCCCc1c(C)nc(SCc2ccccc2)[nH]c1=O | 5.1 | /
C[C@@H]1CN([C@@H](C)CO)C(=O)c2cccc(NC(=O)C3CCOCC3)c2O[C@@H]1CN(C)C | -1.5 | /
C[C@H]1[C@H]2OC3=C(C(=O)OC3(C)O)C(=O)[C@]1(C)[C@H]1CCCC[C@]1(O)[C@H]2O (stereo partly specified) | -1.9 | -0.3
C[C@H]1CN([C@@H](C)CO)C(=O)c2cc(NC(=O)CCN3CCOCC3)ccc2O[C@H]1CN(C)C(=O)Nc1ccccc1 | -3.6 | 0.5
CCCC(C(=O)OCCN(CC)CC)(c1ccccc1)c1ccccc1 | 4.0 | 0.6
C[C@H](CO)N1C[C@H](C)[C@H](CN(C)C(=O)NC2CCCCC2)Oc2ccc(NS(=O)(=O)c3ccccc3)cc2C1=O | 3.9 | 0.4
C[C@@H]1CN([C@H](C)CO)C(=O)c2cc(NC(=O)Cc3cn(C)c4ccccc34)ccc2O[C@H]1CN(C)S(=O)(=O)c1ccc(Cl)cc1 | -1.6 | 1.5
Cc1cc(C(=O)Nc2cccc3c2O[C@@H](CN(C)C(=O)NC(C)C)[C@H](C)CN([C@@H](C)CO)C3=O)n(C)n1 | -6.8 | /
Cc1noc(-c2ccccc2OC(=O)c2ccccc2)n1 | -3.8 | -0.8

Overlap with the part before: five compounds; new compounds follow.
SMILES | BJeLR viability | A1 inh
CCCC(C(=O)OCCN(CC)CC)(c1ccccc1)c1ccccc1 | 4.0 | 0.6
C[C@H](CO)N1C[C@H](C)[C@H](CN(C)C(=O)NC2CCCCC2)Oc2ccc(NS(=O)(=O)c3ccccc3)cc2C1=O | 3.9 | 0.4
C[C@@H]1CN([C@H](C)CO)C(=O)c2cc(NC(=O)Cc3cn(C)c4ccccc34)ccc2O[C@H]1CN(C)S(=O)(=O)c1ccc(Cl)cc1 | -1.6 | 1.5
Cc1cc(C(=O)Nc2cccc3c2O[C@@H](CN(C)C(=O)NC(C)C)[C@H](C)CN([C@@H](C)CO)C3=O)n(C)n1 | -6.8 | /
Cc1noc(-c2ccccc2OC(=O)c2ccccc2)n1 | -3.8 | -0.8
CCc1ccc(NC(=O)CSc2nc3ccccc3c(=O)n2CCc2ccccc2)cc1 | -0.9 | 0.2
CC1=Nc2ccc(Br)cc2C(c2ccccc2)N1CC(=O)NN (stereo unspecified) | -3.4 | 0.7
CC(C(=O)NC1CCCC1)n1sc2ccccc2c1=O (stereo unspecified) | 2.1 | 0.6
CCNS(=O)(=O)c1cc(-c2nn(C)c(=O)c3ccccc23)ccc1C | 2.2 | -0.1
OCCCn1c(-c2ccccc2)csc1=Nc1ccccc1 | 6.2 | -0.2
CC(C)CC(=O)NC(=S)Nc1cccc2nsnc12 | 1.9 | /
C[C@H]1CN([C@@H](C)CO)C(=O)c2cc(NS(=O)(=O)c3cccs3)ccc2O[C@@H]1CN(C)Cc1ccccc1 | -0.2 | 0.3
Cc1ccc(S(=O)(=O)Nc2ccc3c(c2)C(=O)N([C@@H](C)CO)C[C@@H](C)[C@@H](CN(C)S(=O)(=O)c2ccc(Cl)cc2)O3)cc1 | 9.8 | -0.4
COc1ccc(OC)c2c(N3CCOCC3)cc(C(F)(F)F)nc12 | -1.2 | -0.1
C[C@@H]1CN([C@@H](C)CO)C(=O)c2cc(NC(=O)NC3CCCCC3)ccc2O[C@@H]1CN(C)S(=O)(=O)c1ccc(F)cc1 | -7.4 | 0.6
CCc1nnc(SC(CC)C(=O)N2CCCCCC2)c2cc3sccc3n12 (stereo unspecified) | 4.0 | 1.3
CCOC(=O)c1sc(Sc2ccc(C(F)(F)F)cn2)c2c1CC(C)(C)CC2=O | 5.3 | 0.6
C[C@H]1CN([C@@H](C)CO)C(=O)c2cccc(NC(=O)C3CCCCC3)c2O[C@@H]1CN(C)S(=O)(=O)c1ccc(F)cc1 | -4.9 | /
CC(=O)OCC(=O)[C@@]1(O)CCC2C3CC[C@@H]4C[C@H](OC(C)=O)CC[C@]4(C)C3C(=O)C[C@@]21C (stereo partly specified) | -3.6 | 0.6

Ordered by value in A1 inh (lowest first): four of the compounds above.
| SMILES | A1 inh |
| --- | --- |
| Cc1noc(-c2ccccc2OC(=O)c2ccccc2)n1 | -0.8 |
| CCCCCC[C@H](O)[C@@H]1C[C@@H](O)C2=C(O1)[C@@H](O)CCC2=O | -0.7 |
| CC(C)c1cc(NS(=O)(=O)c2ccccc2)c(O)c(C(C)C)c1 | -0.2 |
| C[C@H]1CN([C@@H](C)CO)C(=O)c2cc(NC(=O)CCN3CCOCC3)ccc2O[C@H]1CN(C)C(=O)Nc1ccccc1 | 0.5 |
